# Marburg entry inh – qHTS for inhibitors of binding or entry into cells for Marburg Virus. Marburg virus pseudotyped entry inhibition, cell reporter; control for the full effect not named in the record; about a third of the inactives were read at about 46 µM. Potency, µM (highest dose often 37.8 µM), for inactives: at the highest dose activity change, negative = inhibition, actives largely listed as inhibitors. 300,000 compounds, 1.8% hits. AID 540276, 2011; active = well fitted inhibition curve with a large enough effect; inconclusive = small, poorly fitted or top-dose-only effect, or effect the other way; inactive = flat fitted curve, though single readings scatter; tested in HEK293 cells; about a fifth of its hits are not listed in these tables; also: luciferase read-out
# Active calls of the source: *; ? = inconclusive; & = joins results of further samples; [ ] = dose if it differs, or a comment. % is scaled to controls: 0 for no effect and ±100 for the full control effect; potency is read from the fitted curve at half-maximal effect. Not all compounds are listed (hit frequency here may not be typical).
# The first three records (preview)
SMILES,Marburg entry inh
COc1cc(O)c(C(=O)/C=C\c2ccc3c(c2)OCO3)c(OC)c1,?
COc1cc2c(cc1OC)[C@@H]1O[C@](c3ccsc3)(C2)Oc2cc(-c3ccccc3)oc(=O)c21,?
NNC(=O)Cn1c2c(c3c1CCCC3)CCCC2,1%[46.1 µM]

# The whole of this part (from the top)
SMILES,Marburg entry inh
COc1cc(O)c(C(=O)/C=C\c2ccc3c(c2)OCO3)c(OC)c1,?
COc1cc2c(cc1OC)[C@@H]1O[C@](c3ccsc3)(C2)Oc2cc(-c3ccccc3)oc(=O)c21,?
NNC(=O)Cn1c2c(c3c1CCCC3)CCCC2,1%[46.1 µM]
O=C(C1=NC2=C(CCCC2)CC1)C1CCCCN1 (stereo not given),3%[46.1 µM]
COCCCNc1nc2c(c(=O)[nH]c(=O)n2C)n1C[C@@H](O)COc1ccccc1,20%
COC(=O)[C@@H]1CC[C@H](C)[C@@H](c2ccc(C)cc2)N1C(=O)c1ccc(/C=N/OC[C@H]2O[C@H](c3ccccc3)C=C[C@@H]2Oc2ccc(OC)cc2)cc1,-7%[14.2 µM]
C[C@@H]1CC[C@H]2C(=O)N(Cc3ccccc3)C[C@H](O)CN2[C@@H]1c1ccc(Br)cc1,?
COCC1=NC2C(=O)N(C)C(=O)N(CC(C)C)C2=N1 (stereo not given),13%
CC(C)N[C@@H](C)Cc1ccc(I)cc1,16µM*
COc1cccc(NC(=O)CSC2=C(C#N)[C@H](c3ccco3)C3=C(CCCC3=O)N2)c1,-7%
O=C(C[C@H]1C(=O)N(c2ccccc2)C[C@@H]1c1ccccc1)Nc1ccccc1,?
CCCOC(=O)CSC1=C(C#N)[C@H](c2ccccc2OC)[C@H](C#N)C(=O)N1,6%
O=C1CCCC=C1[C@@H](O)CCOCc1ccccc1,7%[14.2 µM]
COc1cccc(CO[C@H]2C=C[C@@H](c3ccccc3)O[C@H]2COC(C)=O)c1,8%[14.2 µM]
C[C@@H](ON=C1[C@H]2CCn3c(=O)n(-c4ccccc4)c(=O)n3[C@@H]2[C@H](O)[C@@H]2O[C@H]12)c1cn([C@@H]2COC[C@@H]2O)nn1,?
N#C/C(C(=O)N1CCOCC1)=C1\S[C@H](Cc2ccccc2)C(=O)N1c1ccccc1,20%
Cc1noc(C)c1S(=O)(=O)N1CCc2nc(-c3ccccc3)c3c(c2C1)CO[C@@H](C)C3,-12%&-12%[14.2 µM]
CCOC(=O)c1ccc(N2C(=O)C[C@@H](Sc3nnc(C)s3)C2=O)cc1,8%
Cc1ccc(-n2c(=O)c3c4c(sc3n3c(C)nnc23)CO[C@H](C(C)C)C4)cc1,13%
COc1ccc(C=CC2=CC3(C)CC2(C)C(c2ccc(OC)cc2)CC3=O)cc1 (stereo not given),-13%[14.2 µM]
CCOC(=O)C1=C(C)OC(N)=C(C#N)[C@H]1c1cc2ccccc2nc1N1CCCCC1,1%
O=C(O)C[C@H]1SC(=Nc2cccc(C(F)(F)F)c2)NC1=O,-22%[46.1 µM]
COC1=C[C@H](C(=O)NC2CCN(Cc3ccccc3)CC2)[C@@]2(C)Cc3ccccc3[C@@H]2CC1=O,-18%[14.2 µM]
COC(=O)c1c(C(=O)OC)c2c3ccccc3cc(C3CC3)n2c1C(=O)OC,12%[14.2 µM]
CC=CCCN1C=C(C(C)=O)C(c2ccccc2)NC1=O (stereo not given),-22%[14.2 µM]
COC(=O)N[C@H](C(C(=O)OC)=C(C)NCc1ccccc1)c1cccc(F)c1,-11%[14.2 µM]
CC(=O)C1=C(C)C[C@@]2(CC1)C(=O)[C@H](Cc1ccccc1)N(Cc1ccccc1)S2(=O)=O,?
CC(C)[C@@H](OCc1ccccc1)[C@H](C)/C=N\OC[C@@H](O)[C@@H]1O[C@@H]2OC(C)(C)O[C@@H]2[C@H]1O,-5%[14.2 µM]
O[C@@H]1CN(Cc2cccs2)[C@@H](c2ccccc2)C[C@@H]1n1cc(C2CC2)nn1,?
COC(c1ccccc1Br)C(C)/C=C/CCO (stereo not given),?
COCc1[nH]nc2c1[C@@H](c1ccnc3ccccc13)C(C#N)=C(N)O2,-15%
Cc1coc2c(O)cc3c(c12)O[C@@]1(N2CCCCC2)C(=O)NCCC[C@@H]31,-27%
C=C[C@H](O)Cc1c(C)n[nH]c1C,1%
Cc1nc2c(c(=O)n1CC1CCCO1)c1nc3ccccc3nc1n2CC(C)C (stereo not given),-1%
CC(C)NC(=O)NC1N=NC(Nc2ccc(Cl)cc2)=N1 (stereo not given),1%[46.1 µM]
COc1cc(O)c(C(=O)C=Cc2ccccc2)c(O)c1,?
O=C1[C@H]2[C@H]3[C@H](O)[C@H](O)C/C(=N\OCc4ccccc4)[C@@H]3CC[C@H]2C(=O)N1Cc1ccc2c(c1)OCO2,-17%[14.2 µM]
COC(=O)CCC(=O)N1C2=NC3=C(C(=O)N(Cc4ccc5c(c4)OCO5)C3=O)C3N(C)c4ccccc4[C@]23C[C@H]1CO (stereo not given in full),?
CC1(O)C(=O)C=C2C=C3CCCN3C=C2C1=O (stereo not given),?
COC(=O)N[C@@H](c1ccco1)[C@]1(C(C)=O)CCCC1=O,-31%[14.2 µM]
OC1CCCCC1/C=N/n1c2c(c3c1CCCC3)CCCC2 (stereo not given),12%
CC(=O)OC[C@@H]1O[C@H](C/C=N\OC[C@@H](C)[C@H](OCc2ccccc2)C(C)C)C=C[C@@H]1OC(C)=O,-10%[14.2 µM]
O=C1CCCC=C1[C@H](CCc1ccccc1)OC(=O)c1ccc(Br)cc1,?
CCCNC(=O)OC[C@H]1O[C@H](CCON=C2C[C@@H](O)[C@@H](O)[C@@H]3[C@H]4C(=O)N(CC)C(=O)[C@@H]4CC[C@H]23)C=C[C@H]1Oc1ccc(OC)cc1,0%[14.2 µM]
O=C(NCc1ccco1)c1cnn2c1N[C@@H](c1ccccc1)C[C@@H]2C(F)(F)F,0%
C[C@H](NC(=O)CSc1nnc(COc2ccccc2)o1)c1ccccc1,-23%
COC(=O)N[C@H](CC(C)=O)c1ccc(Cl)cc1,3%[14.2 µM]
CC(C)C(=O)NC(=O)[C@@H]1CCCN1C(=O)C=Cc1ccccc1,1%[14.2 µM]

# Entries from the list above that contain an aryl thioether with sulfur outside any ring:
SMILES,Marburg entry inh
CCOC(=O)c1ccc(N2C(=O)C[C@@H](Sc3nnc(C)s3)C2=O)cc1,8%
C[C@H](NC(=O)CSc1nnc(COc2ccccc2)o1)c1ccccc1,-23%

# Further records:
SMILES,Marburg entry inh
C=CCN(Cc1ccc([N+](=O)[O-])cc1)S(=O)(=O)C=C,?
CC(C)OCCCN1C=C2C(=O)C(C)(OC(=O)C3CCCC3)C(=O)C=C2C=C1c1ccsc1 (stereo not given),?
COc1ccc(OC[C@H]2CN3[C@H](c4ccc(Br)cc4)[C@H](C)CC[C@H]3C(=O)O2)cc1,-7%&2%[14.2 µM]
C=C[C@@]1(C)CC[C@H](O)[C@H]2C(=O)CCC[C@H]21,-28%[14.2 µM]
CC(=N\O)/C(CN(C)C)=N\O,?
C[C@H]1CC[C@H]2C(=O)NC[C@H](O)CN2[C@H]1c1ccc(Br)cc1,-10%[14.2 µM]
CC(C)CO/N=C1\C[C@@H](O)[C@@H](O)[C@@H]2[C@@H]3C(=O)N(c4ccc(F)cc4F)C(=O)[C@@H]3CC[C@@H]12,-10%[14.2 µM]
C#CCCCON=C1C[C@@H](O)[C@@H](O)[C@@H]2[C@H]3C(=O)N([C@@H](C)c4ccccc4)C(=O)[C@@H]3CC[C@H]12,?
CSC[C@H]1CN(c2ccccc2)C(=O)[C@H]1CC(=O)Nc1ccc(Br)cc1,?
C=CC[C@@]1(c2ccc(OC)cc2)Oc2ccccc2C2=NCCN=C21,?
CC(=O)OC[C@H]1O[C@H](CC=NO[C@H](C)c2cn([C@@H]3COC[C@@H]3O)nn2)C=C[C@@H]1OC(C)=O,-12%[14.2 µM]
O=C(C=NO)NCCCCNC(=O)C=NO,?

# Part of the list above in order of formula weight, falling:
SMILES,Marburg entry inh
CC(C)OCCCN1C=C2C(=O)C(C)(OC(=O)C3CCCC3)C(=O)C=C2C=C1c1ccsc1 (stereo not given),?
CC(=O)OC[C@H]1O[C@H](CC=NO[C@H](C)c2cn([C@@H]3COC[C@@H]3O)nn2)C=C[C@@H]1OC(C)=O,-12%[14.2 µM]
C#CCCCON=C1C[C@@H](O)[C@@H](O)[C@@H]2[C@H]3C(=O)N([C@@H](C)c4ccccc4)C(=O)[C@@H]3CC[C@H]12,?
CSC[C@H]1CN(c2ccccc2)C(=O)[C@H]1CC(=O)Nc1ccc(Br)cc1,?
C=CC[C@@]1(c2ccc(OC)cc2)Oc2ccccc2C2=NCCN=C21,?
C=CCN(Cc1ccc([N+](=O)[O-])cc1)S(=O)(=O)C=C,?
O=C(C=NO)NCCCCNC(=O)C=NO,?

# Continuation.
SMILES,Marburg entry inh
Cc1cc2c(c(=O)o1)[C@H](CC(C)C)C(C#N)=C(N)O2,5%
COc1cccc([C@H]2Oc3ccc(OC)cc3/C(=N\OCC[C@@H]3C=C[C@H](OC(C)=O)[C@H](COC(C)=O)O3)[C@@H]2O)c1,-24%[14.2 µM]
Cc1ccc([C@H]2C[C@H](c3cccs3)n3nc(N)nc3N2)cc1,5%
CCOC(=O)CC1=C(C(=O)OCC)[C@H](c2cc(OC)c(OC)cc2OC)C(C#N)=C(N)O1,0%
COC(=O)C1=C(C)N(Cc2ccccc2)C(=NCC2CC2)NC1c1ccccc1 (stereo not given),-1%&-13%[14.2 µM]
COC(=O)CCC(=O)OC1(C)C(=O)C=C2C=C(C3CC3)N(c3ccc(CO)cc3)C=C2C1=O (stereo not given),-1%&-1%[14.2 µM]
COC(=O)C(C(=O)OC)C1OC23CN(S(=O)(=O)c4ccc(C)cc4)C=CC2(C)C3c2ccccc21 (stereo not given),-26%[14.2 µM]
C=CCN1C(=O)C2(CC(C)=C[C@@H](C)O2)c2c(Br)cccc21 (stereo not given in full),26%[14.2 µM]
O=C1[C@H]2[C@H]3[C@H](O)[C@H](O)C/C(=N/OCc4ccccc4)[C@@H]3CC[C@@H]2C(=O)N1C1CCCCC1,-14%[14.2 µM]
C[C@@H]1[C@@H](c2ccccc2)Oc2c(Cl)cccc2S(=O)(=O)N1Cc1ccc(F)cc1,?
COc1ccc([C@H]2C(C#N)=C(N)Oc3n[nH]c(C)c32)cc1CSc1ccccn1,-8%
COC(=O)[C@@]12Cc3ccccc3[C@H]1C[C@H](C)[C@@H](C)N2C(=O)C(F)(F)F,3%[14.2 µM]
CCCC[C@H](CCC(=O)Nc1ccc(C(=O)OC)cc1)C(=O)O,18%[46.1 µM]
N[C@@H]1CCc2cc(O)c(O)cc2C1,5%
CC(CCN1CCc2nc(-c3ccccc3)c(-c3ccccc3)cc2C1)=NO[C@H](C)CN1CCCCc2nc(C)c(C)cc21,25%[14.2 µM]
O[C@@H]1CN=C2Sc3ccccc3N2C1,-9%
C=C(C)C(=O)C=CCCCC=CC(=O)OCC,7%[14.2 µM]
Cc1ccc2[nH]c3c(c2c1)CCC[C@H]3C(N)=O,5%
COC(=O)CC=C[C@@H](C)[C@H](NC(=O)OCC(Cl)(Cl)Cl)c1ccc2ccccc2c1,-18%[14.2 µM]
COC(=O)[C@H](N)Cc1ccc(Cl)cc1,-20%
COCCN1C(=O)CC[C@@]23C1=NC(C(=O)OC)=C(C(=O)OC)[C@@H]2N(Cc1ccccc1)c1ccccc13,-9%[14.2 µM]
COC(=O)CC=C[C@@H](C)[C@H](NC(=O)OCC(Cl)(Cl)Cl)c1ccccc1,0%[14.2 µM]
C[C@H]1CN(c2ccc(Br)cc2)C(=O)[C@H]1CC(=O)Nc1ccc(Br)cc1,?
CCCCC[C@H](O)CCCC(=O)O,?
CC(C)=CCCC(C)=CCN1C(=O)[C@@]2(C[C@@H](C)C[C@@H](C)O2)c2ccccc21,-7%[14.2 µM]
COC(=O)c1ccc(CN2C(=O)[C@@]3(CC(C)=CC[C@@H](C)O3)c3ccccc32)cc1,-29%[14.2 µM]
CCCCC1CN2C(CCC(C)C2c2ccc(Br)cc2)C(=O)O1 (stereo not given),4%[14.2 µM]
CCOC(=O)C(C)=NNC(C)=O,-17%[14.2 µM]
CC(C)CO/N=C1\C[C@@H](O)[C@@H](O)[C@@H]2[C@@H]3C(=O)N(C[C@@H]4CCCO4)C(=O)[C@@H]3CC[C@H]12,10%[14.2 µM]
COC(=O)NC(c1ccc(Cl)cc1)C(C(C)=O)C(=O)OC (stereo not given),13%[14.2 µM]
C[C@@H]1C(=O)N(C)C(=O)c2nc[nH]c21,4%
COC(=O)c1ccc([C@H]2/C(=C(\O)c3ccc(OC)cc3)C(=O)C(=O)N2c2cc(C)on2)cc1,-24%[46.1 µM]
CC1=CC[C@@H](COc2ccccc2)O[C@@]2(C1)C(=O)N(Cc1ccccc1C(F)(F)F)c1ccccc12,1%[14.2 µM]
COc1ccc([C@]23Cc4cc(OC)c(OC)cc4[C@H](O2)C2=C(CC4(CCCCC4)OC2=O)O3)cc1,2%[14.2 µM]
O=C(O)[C@H]1CC(=O)N(Cc2cccs2)C1,9%
CCN1C(=NCc2cccc(C(F)(F)F)c2)NC(c2cccc(F)c2)C(C(=O)OC)=C1C (stereo not given),?
COc1cccc(CO[C@H]2C=C[C@@H](c3ccccc3)O[C@H]2CBr)c1,?
CCn1cc(C(=O)NC[C@H]2CCCO2)c(=O)c2cc(F)c(N3CCN(C)CC3)cc21,-21%
CC1(C)CC(NC(=O)C2=C(C(=O)NC3CC(C)(C)NC(C)(C)C3)CCCC2)CC(C)(C)N1,-17%

# Screens (PubChem)
